Assay outcomes: PubChem, National Center for Advancing Translational Sciences (NCATS)
Prx2 Sm inh = Schistosoma mansoni Prx2 inhibition. S. mansoni Prx2 activity coupled to TGR/GSH (TGR is thioredoxin glutathione reductase), NADPH fluorescence loss, qHTS; some inactives read as strong as hits. Potency, µM. 0.07% of 65,000 active. AID 448; active means full or partial inhibition curve with a strong effect at the top dose; inconclusive means weaker partial or single-point curve; inactive means no accepted curve; also: series up to 57 µM; many of its hits are not listed in these tables
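qHTS, coupled TGR/Prx2 format; 15 min compound preincubation at RT; reaction started with H2O2 (2.5 mM aliquot); kinetic NADPH fluorescence decrease, ex 365/em 450 nm.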
LT uptake inh = anthrax lethal toxin internalization inhibition; Cells, anthrax lethal toxin internalization, FRET ratio (460/530); Potency, µM (series often up to 40 µM), without a hit: at the highest dose activity change, negative = inhibition, usual class: inhibitors; 0.67% of 70,000 active; AID 912; active = well fitted falling ratio curve with the 530 nm signal flat; inconclusive = other ratio curves, or a change in one channel alone; inactive = flat curves in the ratio and both channels; the % refers to the ratio; also: % is scaled to controls: 0 for no effect and ±100 for the full control effect; nearly all actives have a fitted effect of over 50% in size; tested in ME-180 cells; beta-lactamase reporter
Active calls of the source: *; ? = inconclusive; · = not tested or not shown; [ ] = remark or other dose. Potency is read from the fitted curve at half-maximal effect.

Results follow in this order: LT uptake inh	Prx2 Sm inh
1: CCOC(=O)c1sc(NC(=O)c2ccc(Br)o2)cc1C
 : ?	>57
2: Cc1cc(C)c(NC(=O)CCCN2CCOCC2)c(C)c1
 : 0%	>57
3: CC1(C)C/C(=N\O)c2cc3c(nc2C1)CCCC3
 : -4%	>57
4: Cc1cc(C)c(C2C(C#N)=C(N)Oc3n[nH]c(C)c32)cc1CN1CCCC1 (stereo not given)
 : -19%	>57
5: O=C(Cn1cc2c(n1)CCCC2)NC1CCCCCC1
 : -10%	>57
6: CCOc1ccc(N(C)S(=O)(=O)c2ccc3[nH]cc(C(=O)NCC4CCCO4)c(=O)c3c2)cc1 (stereo not given)
 : ?	>57
7: Cc1c(NC(=O)CN2CCN(C(c3ccccc3)c3ccccc3)CC2)c(=O)n(-c2ccccc2)n1C
 : -8%	>57
8: COc1cc(NC(=O)CN(C)S(=O)(=O)c2ccc(C)cc2)cc(OC)c1
 : ·	>57
9: CCn1c(C(=O)N2CCC(C(=O)NCCCSC3CCCCC3)CC2)cc2sccc21
 : ?	>57
10: CCCCCCCCCCCCCCCCCCNC(=O)OC[C@@H](COP(=O)([O-])OCC[n+]1ccsc1)OC
 : -1%	>57
11: CCCCCl
 : -6%	·
12: c1ccc(-c2nnc(CSc3nnc(-c4cccs4)o3)o2)cc1
 : 15%	>57
13: Cc1cc(N2CCOCC2)nc2ccc(NC(=O)CCC(=O)N3CCC4(CC3)OCCO4)cc12
 : 15%	>57
14: O=C(NCc1cccnc1)c1ccc(CS(=O)(=O)Cc2ccc(Cl)cc2)o1
 : -3%	>57
15: CSc1ccc(S(=O)(=O)Nc2ccc(N3CCOCC3)c(Cl)c2)cc1
 : ·	>57
16: Cc1cccnc1NC(=O)COc1ccc2oc3c(c2c1)CCCC3
 : ?	>57
17: CCOc1ncccc1C(=O)Nc1ccc2c(C)cc(=O)oc2c1
 : 6%	>57
18: Cn1cccc1CNCCc1ccccc1F
 : ?	>57
19: Cc1ccc(Cn2ccc(NC(=O)c3nc4ncccn4n3)n2)cc1
 : -6%	>57
20: CC(C)Oc1ccc2c3c(c(=O)oc2c1)CCC3
 : ?	·
21: COc1ccc(OC)c(NC(=O)C2C3CCC(C3=C(C)C)C2C(=O)O)c1 (stereo not given)
 : -9%	>57
22: COc1nc(OC)nc(N2CCC(NC(=O)C(Cc3ccc(C(C)C)cc3)NC(C)=O)CC2)n1 (stereo not given)
 : 1%	>57
23: CCOC(=O)N1CCN(C(=O)C(C)N(c2ccc(Oc3ccccc3)cc2)S(C)(=O)=O)CC1 (stereo not given)
 : 8%	>57
24: O=C1[C@H]2[C@H]3[C@H](O)[C@H](O)C/C(=N/OCc4ccccc4)[C@@H]3CC[C@@H]2C(=O)N1C1CCCCC1
 : -6%[1.6 µM]	·
25: [O-][N+]1=c2ccc(Nc3ccccc3)cc2=NC12CCCCC2
 : 19%	?
26: COc1ccc(-c2cc(C(F)(F)F)n3nc(C(=O)N4CCCCC4)cc3n2)cc1
 : 6%	·
27: CC(C)n1c(N2CCN(CC(=O)Nc3ccc4c(c3)OCCO4)CC2)nc2ccccc21
 : -6%	>57
28: CC(=O)O[C@@H]1CN2CCC1CC2
 : ?	>57
29: Cc1nc2cnc(Oc3cccc(Cl)c3)nc2n(C[C@H]2CCCO2)c1=O
 : -6%	>57
30: CCc1ccc(NC(=O)NCCN2CCc3ccccc3C2)cc1
 : -22%	>57
31: COc1ccc(NCc2nnc(SCC(=O)Nc3cc(C)cc(C)c3)o2)cc1
 : ?	>57
32: COc1cc(-c2cc(OC)c3c(C)oc(C)c3c(=O)c2)ccc1O
 : 7%	>57
33: C/C(=C\CNc1ncnc2nc[nH]c12)CO
 : ?	>57
34: O=C(CCCC(=O)N(CC(=O)NC1CCCC1)C1CCCC1)Nc1ccccn1
 : -9%	>57
35: CC(C)(C)n1nnnc1C(c1cc2cc3c(cc2[nH]c1=O)OCO3)N1CCN(c2ccccc2)CC1 (stereo not given)
 : -5%	>57
36: CSc1cccc(NC(=O)c2ccco2)c1
 : ?	·
37: O=C(CCC1CCCCC1)N1CCN(Cc2ccc3c(c2)OCO3)CC1
 : -6%	>57
38: O=C(NCc1ccco1)c1cc2nc(-c3ccc4c(c3)OCO4)cc(C(F)(F)F)n2n1
 : 10%	>57
39: CC(CN1CCCCC1)OC(=O)c1ccc(Cl)cc1 (stereo not given)
 : -12%	>57
40: CC(C)=CCC/C(C)=C/CO/N=C1/C[C@@H](O)[C@@H](O)[C@@H]2[C@H]3C(=O)N(c4ccc(F)cc4F)C(=O)[C@@H]3CC[C@H]12
 : -4%[8 µM]	·
41: COCCNC(=O)c1ccc(NS(C)(=O)=O)cc1
 : -5%	>57
42: Cc1ccc(N2C(=O)c3ccc(C(=O)N4CCN(c5ccccc5F)CC4)cc3C2=O)cc1
 : ?	>57
43: COC(=O)CSc1nnc2c(C)cc3cc4c(cc3n12)OCCO4
 : 1%	>57
44: Cc1cnc(NC(=O)CSc2nnc(Cc3ccccc3)o2)s1
 : 25%	>57
45: Cn1c(O)c(C=NCCc2c[nH]c3ccccc23)c(=O)n(C)c1=O
 : -3%	·
46: CC(=Nc1ccc2c(c1)CCC2)c1c(O)n(C)c(=O)n(C)c1=O
 : 0%	>57
47: O=C(CSc1nnc(-c2ccc3c(c2)OCCO3)o1)N1CCCC1
 : ·	>57
48: Cc1cc(C)n(C(CC(=O)O)C(=O)O)n1 (stereo not given)
 : -2%	>57
49: C=C(C)CSc1nnc(CCNC(=O)OC(C)(C)C)o1
 : ·	>57
50: COc1ccc(C(C)=O)cc1COC(=O)c1cnc(C)cn1
 : 1%	>57

New compounds follow:
Results follow in this order: LT uptake inh	Prx2 Sm inh
51: CCCC(=O)c1c(O)[nH]c(=O)[nH]c1=O
 : -2%	>57
52: N#CCCn1c(=O)c(-c2ccccc2)nc2cnc(OCc3ccccc3)nc21
 : ?	>57
53: CC1Cc2ccccc2N1C(=O)c1cc2c(=O)n3ccccc3nc2n1C (stereo not given)
 : 10%	>57
54: CCn1c(=O)cc(SCC(=O)NCc2ccc3c(c2)OCO3)c2ccccc21
 : -4%	>57
55: Cc1ccc(C)c(Cc2c(C)nc3c(C(=O)N4CCOCC4)cnn3c2C)c1
 : 14%	·
56: Cc1ccc(-n2nnnc2SCC(=O)c2cc(C)n(CC3CCCO3)c2C)cc1 (stereo not given)
 : ?	>57
57: Cn1c(COc2ccc(Cl)cc2)nnc1SCC(=O)NC1CCCCC1
 : 1%	>57
58: O=C1c2ccccc2C(Cc2ccnc(F)c2)(Cc2ccnc(F)c2)c2ccccc21
 : -13%	·
59: COc1ccc(C(=O)Nc2ccccc2)cc1S(=O)(=O)Nc1cc(C)on1
 : -11%	>57
60: Cc1ccc(S(=O)(=O)NCCOCCNS(=O)(=O)c2ccc(C)cc2)cc1
 : 4%	>57

Entries listed so far that have a furan ring, fused or not, in the order listed:
Results follow in this order: LT uptake inh	Prx2 Sm inh
1: CCOC(=O)c1sc(NC(=O)c2ccc(Br)o2)cc1C
 : ?	>57
14: O=C(NCc1cccnc1)c1ccc(CS(=O)(=O)Cc2ccc(Cl)cc2)o1
 : -3%	>57
16: Cc1cccnc1NC(=O)COc1ccc2oc3c(c2c1)CCCC3
 : ?	>57
32: COc1cc(-c2cc(OC)c3c(C)oc(C)c3c(=O)c2)ccc1O
 : 7%	>57
36: CSc1cccc(NC(=O)c2ccco2)c1
 : ?	·
38: O=C(NCc1ccco1)c1cc2nc(-c3ccc4c(c3)OCO4)cc(C(F)(F)F)n2n1
 : 10%	>57

Remaining list, next part:
Results follow in this order: LT uptake inh	Prx2 Sm inh
61: COc1ccc(NC(=O)C(NS(=O)(=O)c2ccc3c(c2)CCCN3C(C)=O)C(C)C)c(OC)c1 (stereo not given)
 : 3%	>57
62: COc1ccccc1N1CCN(CCNC(=O)Nc2cccc(C)c2C)CC1
 : -22%	>57
63: O/N=C1\CCC\C1=C/c1ccco1
 : -5%	>57
64: O=c1cc(-c2c(F)c(F)c(F)c(F)c2F)oc2c(F)c(F)c(F)c(F)c12
 : ?	>57
65: COCCN(C(=O)c1csnn1)C(C(=O)NC(C)(C)C)c1cccc(OC)c1 (stereo not given)
 : 0%	>57
66: COc1ccc(C(=O)c2no[n+]([O-])c2C(=O)c2ccc(OC)cc2)cc1
 : ?	?
67: O=C(c1ccco1)N1CCN(C(c2cccs2)c2sc3ncnn3c2O)CC1 (stereo not given)
 : 14%	>57
68: CCOC(=O)C1CCN(S(=O)(=O)c2cc(Br)cc3c2N(C(C)=O)C(C)C3)CC1 (stereo not given)
 : 20%	>57
69: Cc1cc(C)n2nc(SCC(=O)c3cc(C)n(-c4cc(C)on4)c3C)nc2n1
 : -2%	>57
70: COc1ccc(-n2nc(C(=O)NCC(=O)NCC3CCCO3)c3ccccc3c2=O)c(OC)c1 (stereo not given)
 : 3%	>57
71: CC1CCN(CCCNC(=O)C2CCN(S(=O)(=O)N3CCCCC3)CC2)CC1
 : 6%	>57
72: Cc1cccnc1NC(=O)c1c(O)c2cccc3c2n(c1=O)CCC3
 : -8%	>57
73: N#Cc1nc(Cc2cccc3ccccc23)oc1NCc1ccc(F)cc1
 : -15%	>57
74: CCN(CC)CCCN(Cc1cc2cc(OC)ccc2[nH]c1=O)C(=O)Nc1ccc(F)cc1
 : ?	>57
75: O=C(CN(CCc1ccccc1)C(=O)CN1C(=O)COc2ccccc21)NCc1ccco1
 : -6%	>57
76: O[C@H](CNc1ccccn1)c1ccccc1
 : -8%[8 µM]	>57
77: Clc1ccc(OCc2nn3c(-c4ccco4)nnc3s2)c(Cl)c1
 : 7%	>57
78: Oc1ccc(Cl)cc1Cl
 : -16%	·
79: CC1=CC(=O)c2ccccc2C1=O
 : ?	>57
80: COc1ccc2nc(NC(=O)CSc3nnc4n3C(C)(C)Cc3ccccc3-4)sc2c1
 : -11%	>57
81: CN(Cc1ccco1)c1cc(-c2ccc3c(c2)OCO3)ncn1
 : -11%	>57
82: Cc1ccc(N2C(=O)c3n[nH]c(C)c3C2c2ccco2)cc1 (stereo not given)
 : ·	>57
83: O=S(=O)(CCN1CCN(C(c2ccccc2)c2ccccc2)CC1)C(F)(F)F
 : ?	>57
84: COC(=O)c1ccc(C(NC(=O)OCc2ccccc2)/C(=C/[C@@H](C)C(=O)NCC2CC2)c2cccnc2)cc1 (stereo not given in full)
 : 24%	·
85: COc1ccc(NC(=O)N(CCN2CCCC2)Cc2cc3cc(OC)c(OC)cc3[nH]c2=O)cc1
 : -3%	>57
86: c1cc(-n2cnnn2)ccc1NC1=NCCC1
 : -9%	>57
87: CCNCC(O)COCC(O)CNCC (stereo not given)
 : -8%	>57
88: CCCCCCn1c(NCC)nc2c1c(=O)n(C)c(=O)n2C
 : 10%	>57
89: Cc1cc(C)nc(SCCc2ccncc2)n1
 : -14%	>57
90: Cc1cc(C)nc(N(C#N)Cc2ccccc2Cl)n1
 : -17%	>57
91: Cc1cc(C)n(-c2nc(-c3cccc(Cl)c3)cs2)n1
 : ?	>57
92: O=C1CN(C(=O)CC2c3ccccc3-c3ccccc32)CC(=O)N1
 : ·	>57
93: Cn1cc(C(=O)c2ccc(F)cc2)cc1-c1nc2ccccc2n1C
 : -17%	>57
94: Cc1cc(C)n(C(C)n2nc(C)cc2C)n1
 : 4%	>57
95: Cn1cccc1C(=O)N1CCC[C@@]2(CCN(c3cccc(-c4ccccc4)c3)C2)C1
 : ?	>57
96: COc1ccc(OC)c(N/C(C)=C/C(=O)c2ccc(C)o2)c1
 : ·	>57
97: COc1ccc(-c2nc(CS(=O)CC(=O)NCCCN3CC(C)CC(C)C3)c(C)o2)cc1OC (stereo not given)
 : -6%	>57
98: CC(=O)Nc1cccc2c1[n+]([O-])c(C)c(C)[n+]2[O-]
 : 19%	·
99: CCN=C1SC(CC(=O)Nc2ccccc2OCC)C(=O)N1CC (stereo not given)
 : -3%	>57
100: c1ccc2nc3c(nc2c1)c1ccccc1n3CCN1CCOCC1
 : 10%	>57
101: N#Cc1nc(-c2ccc(OCc3ccccc3)cc2)oc1NCc1cccnc1
 : ·	>57
102: CO[C@@H]1CC[C@@]2(C)[C@@H](CC[C@@]3(C)[C@H]2CC=C2[C@H]4CC(C)(C)[C@H](O)[C@@H](OC(C)=O)[C@]4(CO)[C@H](O)C[C@]23C)[C@@]1(C)CO (tested in a mixture with another compound)
 : -7%[3.58 µM]	>57
103: CC(C)CN(C(=O)COC(=O)CCN1C(=O)c2ccccc2C1=O)C1CCS(=O)(=O)C1 (stereo not given)
 : -10%	>57
104: CCOC(=O)C1=C(c2ccccc2)OC(N)=C(C#N)C1c1ccco1 (stereo not given)
 : ?	>57
105: Cc1ccc(-n2nnc3c(=O)n(CC(=O)N4CCOCC4)cnc32)cc1
 : 19%	>57
106: CN1CC(=O)NC1=NC(=O)c1ccc(Cl)c(S(=O)(=O)N2CCCCCC2)c1
 : ?	>57
107: Cn1c(=O)c2c(nc(SCc3ccccn3)n2C)n(C)c1=O
 : ?	>57
108: Cc1cccc(CSc2nnc(-c3ccco3)n2C)c1
 : 1%	>57
109: CCOC(=O)C1CCN(C(=O)c2cn(CCOC)c(=O)c3c2c2ccccc2n3C)CC1
 : ?	>57
110: Cc1cc(C(=O)c2cccs2)c(N)s1
 : -5%	>57
111: COc1nc(NCc2ccco2)nc(N2CCC(C)CC2)n1
 : ?	>57
112: O=C(C1CCC(CNc2c(N3CCCCC3)c(=O)c2=O)CC1)N1CCCCC1 (stereo not given)
 : -6%	>57

Only part of the results is shown; the hit share may differ from the screen's.
